Bioassay records (PubChem)
ALR inh: inhibitors of human ALR sulfhydryl oxidase, primary screen, biochemical, H2O2 detection, HRP-luminol luminescence, single point; FAD-linked sulfhydryl oxidase ALR (Homo sapiens), P55789; purified ALR, DTT oxidation; inhibition, % (concentration not given with the values); actives 3.8% (n = 290,000); AID 485317, 2010;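 active = mean and each replicate at 75% or more; inconclusive = only one of the two met; inactive = neither met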;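 note: stock transfer was 7.5 nL into about 7.5 µL; 0% = neutral wells and 100% = wells with inactivated enzyme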
Target sequence (P55789 whole entry, looked up): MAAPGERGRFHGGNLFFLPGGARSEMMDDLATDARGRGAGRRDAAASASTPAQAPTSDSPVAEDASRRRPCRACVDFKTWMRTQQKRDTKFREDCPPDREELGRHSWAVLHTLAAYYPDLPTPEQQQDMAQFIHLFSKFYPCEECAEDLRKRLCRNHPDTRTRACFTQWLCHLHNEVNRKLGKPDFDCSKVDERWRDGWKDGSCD
HNF4A DNA FP: change in binding of human HNF4A to DNA, primary screen, biochemical, fluorescence polarization, FITC-DNA | 1 h | Hepatocyte nuclear factor 4-alpha (Homo sapiens), P41235 | activity change, % at 10 µM | actives 0.3% (n = 360,000); in the data active = activity change above about 30%, passing the limit was not always enough;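 note: controls were the assay level and a saturating level of protein; the project sought stronger binding though the title names inhibitors; some compounds called inactive have numbers as strong as hits; positive values seem to mean higher polarization but the record does not say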
Target sequence (P41235 whole entry, looked up): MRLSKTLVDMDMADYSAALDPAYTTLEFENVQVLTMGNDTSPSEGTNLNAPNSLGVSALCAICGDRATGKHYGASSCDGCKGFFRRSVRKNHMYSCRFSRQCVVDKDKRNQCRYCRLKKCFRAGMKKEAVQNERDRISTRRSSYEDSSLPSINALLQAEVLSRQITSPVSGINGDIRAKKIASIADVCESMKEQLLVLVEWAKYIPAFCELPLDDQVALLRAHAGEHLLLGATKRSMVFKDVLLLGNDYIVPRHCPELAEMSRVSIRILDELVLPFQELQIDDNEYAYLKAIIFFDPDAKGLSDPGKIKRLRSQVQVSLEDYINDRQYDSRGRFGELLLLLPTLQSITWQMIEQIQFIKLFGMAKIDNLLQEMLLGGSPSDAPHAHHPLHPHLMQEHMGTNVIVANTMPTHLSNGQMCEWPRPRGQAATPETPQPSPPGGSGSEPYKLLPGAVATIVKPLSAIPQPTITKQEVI
Calb FLC: C. albicans growth inhibition with fluconazole, primary screen, CaCi-2 strain, Alamar Blue fluorescence | C. albicans CaCi-2 (fluconazole-resistant clinical isolate) + fluconazole, 48 h | growth inhibition, % (no concentration beside the values) | actives 0.57% (n = 300,000) | AID 1979, 2009;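 active = most replicates above 75%; inconclusive = exactly half above 75%; inactive = most below 75%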;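 note: all wells also contain fluconazole at 8 µg/ml as a sub-toxic cotreatment; 0% = median of DMSO wells and 100% = median of geldanamycin control wells; wells of about 8 µL received 7.5 nL stock; the first replicate is given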
LANA-H2B inh: blockers of LANA interaction with H2A/H2B – biochemical, FP readout, HTS, primary screen; Protein LANA1 (Human herpesvirus 8 type P (isolate GK18)), Q9QR71; cell-free LANA-H2A/H2B peptide, fluorescence polarization; inhibition, % (no concentration beside the values); AID 2629, 2010; actives 0.6% (n = 320,000); in the data active = inhibition mostly above about 10%, no sharp cut-off; inactive = mostly below about 6.7%;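 note: stock transfer was 7.5 nL into about 10 µL; 0% = median of vehicle wells and 100% = median of positive control wells; one replicate is shown; the record names a cut of 25% in any replicate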
Vif TR-FRET: inhibitors of Vif binding to APOBEC3G peptide, primary screen, biochemical, TR-FRET, GST-Vif 1-94, biotin-A3G peptide, dose response retest (AID 1117319) | actives 0.57% (n = 260,000) | inhibition, %; hits with a dose series show IC50 in µM | Virion infectivity factor (Human immunodeficiency virus type 1 group M subtype B (isolate … | TR-FRET GST-Vif / biotin-A3G peptide binding; higher % means a stronger effect; test concentration not given here; strong numbers were not always called active;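 active = above the screen mean plus three standard deviations and confirmed in dose response; inconclusive = results disagree or hit not tested in dose response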;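 note: Vif residues 1-94 fused to GST binding biotinylated APOBEC3G peptide 110-148; 0% = full assay without inhibitor and 100% = GST in place of GST-Vif; retest series ran down from 100 µM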
RanGTP-Imp inh: inhibitors of RanGTP-importin-beta interaction, primary screen, biochemical, FRET, CFP-Ran, YFP-importin-beta, homogeneous. cell-free CFP-Ran/YFP-importin-beta FRET ratio. inhibition, % (no concentration beside the values). actives 1.1% (n = 300,000);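 active = most replicates above 15%; inconclusive = exactly half above 15%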;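 note: 0% = DMSO wells and 100% = Ran loaded with GDP instead of GTP; wells of about 40 µL received 100 nL stock; the first replicate is given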
B2AR ag: beta2AR agonists driving receptor internalization, primary screen, cell-based, FAP fluorogen, flow cytometry; Beta-2 adrenergic receptor (Homo sapiens), P07550; response, % (no concentration beside the values); Am2.2-beta2AR cells; reference of the scale not given here; actives 0.43% (n = 340,000);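 active = response above a set limit, near 3 SD of response in nonfluorescent compounds, cut at about 42% in these data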;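 note: stock transfer was 100 nL into about 11 µL; a reference agonist was the positive control; negative values mostly stem from fluorescent compounds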
Target sequence (P07550 whole entry, looked up): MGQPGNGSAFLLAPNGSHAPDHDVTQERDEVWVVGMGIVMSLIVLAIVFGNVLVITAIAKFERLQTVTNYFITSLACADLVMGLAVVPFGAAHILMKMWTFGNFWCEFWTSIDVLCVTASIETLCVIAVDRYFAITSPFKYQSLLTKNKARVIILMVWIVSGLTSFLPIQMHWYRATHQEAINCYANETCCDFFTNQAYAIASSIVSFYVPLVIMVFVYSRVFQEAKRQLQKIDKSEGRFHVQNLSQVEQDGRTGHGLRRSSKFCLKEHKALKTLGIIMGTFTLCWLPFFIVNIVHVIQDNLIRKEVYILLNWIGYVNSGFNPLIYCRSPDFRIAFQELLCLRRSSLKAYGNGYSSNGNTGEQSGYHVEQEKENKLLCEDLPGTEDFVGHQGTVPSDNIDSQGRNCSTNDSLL
The depositor's hits bear a star; ? = inconclusive; nt = not tested or not shown; & = joins results of further samples.

SMILES | ALR inh | HNF4A DNA FP | Calb FLC | LANA-H2B inh | Vif TR-FRET | RanGTP-Imp inh | B2AR ag
CCOC(=O)c1sc(NC(=O)COc2ccc3c(c2)OCO3)nc1C | -2 | -1.7 | 7 | -1.9 | nt | -1.1 | -4
Cc1ccc(NC(=S)N2CCN(S(=O)(=O)c3ccc(C)cc3)CC2)cc1 | -2 | -1.8 | -20 | 4.3 | 1% | nt | -6
Cc1ccc(CN2CCN(Cc3cn[nH]c3C3CCCCC3)CC2CCO)cc1 (configuration not stated) | -5 | 2.0 | 2 | 5.9 | -2% | 9.0 | 3
COc1cccc(C2NC(=O)NC(C)=C2C(=O)Nc2cccc(C)c2C)c1 (configuration not stated) | -5 | -0.7 | 1 | 0.9 | 3% | 0.2 | 0
C[C@@H]1CN([C@H](C)CO)C(=O)Cc2cc(NS(=O)(=O)c3ccc(Cl)cc3)ccc2O[C@H]1CN(C)Cc1ccc(C(F)(F)F)cc1 | -2 | -3.1 | nt | 0.2 | nt | nt | -3
CCOc1ccc(NC(=O)N2CCN(c3nc4ccccc4s3)CC2)cc1 | -13 | 4.9 | -8 | -6.1 | -9% | -1.1 | 3
N#C/C(=C/c1ccccc1)c1nn(CCO)c(N)c1C#N | -3 | 7.0 | 2 | 0.6 | 6% | 8.4 | -5
Cc1oc2c(C)c3oc(=O)c(CCC(=O)NCCCN4CCOCC4)c(C)c3cc2c1C | 16 | 8.0 | -1 | -3.8 | nt | ? | 0
Cc1nsc2nc3c(F)c(F)c(F)c(F)c3cc12 | -47 | -2.3 | -3 | 9.6 | 2% | -0.4 | 6
Cc1ccc(Cl)cc1NS(=O)(=O)c1cn(C)nc1C | -6 | -1.1 | 1 | -1.0 | nt | 1.4 | 3
COC(=O)c1ccc(Oc2nc(SC)nc(N(C)C)n2)cc1 | 7 | 5.5 | 4 | 5.4 | 13% | 4.3 | -20
CN(C)c1ccc(/C=C/C(=O)c2ccc3c(c2)OCCO3)cc1[N+](=O)[O-] | 7 | 1.0 | ? | 2.6 | 0% | -3.5 | 9
c1ccc(-c2nc(NCCCn3ccnc3)c3oc4ccccc4c3n2)cc1 | -3 | 2.2 | 58 | 0.3 | 0% | -4.2 | -13
CC(C)c1c(C(=O)N/N=C/c2ccoc2)nnn1-c1nonc1N | -1 | -1.0 | -16 | -0.2 | nt | -3.5 | -29
COCCN1C(=O)C(=O)/C(=C(/O)c2ccc(S(=O)(=O)N3CCOCC3)cc2)C1c1cccc(O)c1 (configuration not stated) | -18 | -1.3 | -6 | 0.7 | 4% | -1.7 | 1
COc1ccc(C(=O)O)cc1S(=O)(=O)N1CCSCC1 | 2 | -1.4 | 3 | -0.5 | nt | -1.1 | 4
COc1ccc(NC(=O)NNC(=O)C(C)Oc2ccc(C(C)C)cc2)c(OC)c1 (configuration not stated) | 1 | -0.1 | 7 | -2.4 | nt | 0.0 | -1
C[C@@H](NC(=O)c1nc[nH]c1C(=O)OCc1ccccc1)c1ccccc1 | 5 | -0.1 | nt | 10.0 | nt | nt | 23
Cc1ccccc1CC1(CO)CCCN(C(=O)c2ccccc2Cl)C1 (configuration not stated) | nt | -0.8 | -3 | 2.4 | 0% | -3.4 | -1
COc1ccc(Oc2cc(C)c3cccc(C)c3n2)cc1 | nt | 4.3 | -9 | 0.3 | 2% | 2.9 | 9
O=C(c1ccccc1)c1coc2ccc(O)c(Cl)c12 | 99* | -3.9 | 30 | 0.0 | 20% | 1.2 | -15
O=C(NCC1CCCO1)c1ccccc1-c1nc(-c2ccc(Cl)cc2)no1 (configuration not stated) | nt | 2.1 | -36 | 0.0 | 1% | 3.5 | -4
COc1ccc(CN2CCN(Cc3ccco3)CC2)cc1OC | -14 | -0.6 | 4 | 0.8 | 7% | -2.3 | 2
O=C1CN(C(=O)Cn2ncc(Cl)c(Cl)c2=O)c2ccccc2N1 | nt | -0.9 | 21 | nt | -6% | 3.2 | 11
Cc1cc(Br)ccc1SCC(=O)OCC(=O)NCc1ccc2c(c1)OCO2 | -1 | 2.5 | -4 | 5.9 | 19% | 6.8 | 2
CCN(CC(=O)Nc1cc(Cl)ccc1-n1cncn1)Cc1nc2ccccc2c(=O)[nH]1 | -17 | -2.0 | nt | 1.1 | -5% | nt | 2
C=CCNC(=O)C1CC2Cn3c(nc4cc(C)c(C)cc43)C2N1C (configuration not stated) | nt | 5.2 | -13 | 0.6 | -11% | 1.6 | -15
O=[N+]([O-])c1ccc(N=Cc2c(O)ccc3ccccc23)cc1 | nt | 6.1 | -1 | 0.9 | 7% | -0.2 | 5
CN(CCCC1CCCC1)C(=O)CC1C(=O)NCCN1Cc1cccc(F)c1F (configuration not stated) | -7 | -2.8 | -8 | -3.3 | nt | 3.6 | 1
COc1cc(OC)cc(C(=O)N2CCN(C(=O)COc3ccc4ccccc4c3)CC2)c1 | -20 | -2.6 | -19 | 0.3 | 9% | -0.5 | 15
N#C/C(=C\c1c(F)cccc1Cl)C(=O)NC1CC1 | 6 | 0.0 | 10 | 5.0 | nt | -1.6 | 13
CCCCNc1nc(-c2ccccc2)cc(C(F)(F)F)c1C(N)=O | -9 | 3.7 | -16 | 2.1 | -5% | 1.1 | 3
COc1ccc(-c2nc(-c3cccs3)c(-c3cccs3)[nH]2)cc1O | 99* | 3.8 | 4 | -8.4 | -16%&19% | 2.6 | 16
COc1ccc(-c2nc3cccc(C)n3c2NCC2CCCO2)cc1O (configuration not stated) | 49 | 0.8 | 7 | -6.3 | -5% | 4.9 | 0
COc1cccc(OC)c1OCCCCCc1c(C)n[nH]c1C | 0 | -2.1 | 2 | 4.9 | -2%&1% | 4.8 | 2
O=C1C=CC(=O)N1c1ccc2c(c1)Cc1cc(F)ccc1-2 | nt | -11 | nt | nt | -9% | nt | 4
COc1ccc(NC(=O)CSc2nc(C)cc(C)n2)c([N+](=O)[O-])c1 | -4 | 1.5 | -28 | 0.5 | nt | 1.8 | -1
CCN(CC)c1ccc2c(O)cc(=O)oc2c1 | 45 | 1.5 | -1 | 4.9 | 7% | 5.1 | -7
O=S1(=O)N=C2CCCCCN2C(c2ccncc2)N1 (configuration not stated) | -4 | 1.6 | 0 | 1.0 | 0% | 2.3 | -6
COc1ccccc1C(=O)Nc1cc2c(ccc3ccccc32)oc1=O | -2 | nt | 27 | 2.3 | -11% | 0.9 | nt

The final three records of the part before are carried over, then new ones follow:
SMILES | ALR inh | HNF4A DNA FP | Calb FLC | LANA-H2B inh | Vif TR-FRET | RanGTP-Imp inh | B2AR ag
CCN(CC)c1ccc2c(O)cc(=O)oc2c1 | 45 | 1.5 | -1 | 4.9 | 7% | 5.1 | -7
O=S1(=O)N=C2CCCCCN2C(c2ccncc2)N1 (configuration not stated) | -4 | 1.6 | 0 | 1.0 | 0% | 2.3 | -6
COc1ccccc1C(=O)Nc1cc2c(ccc3ccccc32)oc1=O | -2 | nt | 27 | 2.3 | -11% | 0.9 | nt
COCOc1ccc(C=O)cc1OCOC | -4 | -2.3 | -1 | 5.7 | nt | 2.4 | -6
Cc1ccc(NC(=O)Nc2ncccc2C)cc1 | -7 | -0.6 | -20 | -2.5 | 8% | -3.2 | 12
Cc1ccccc1OCC(=O)OCC(=O)c1ccc(OCc2ccccc2)cc1 | 0 | -1.3 | ? | -2.0 | nt | -2.2 | -4
COC(=O)c1cn(-c2ccc(F)cc2)c(=O)c2ccccc12 | 2 | -0.1 | -1 | 1.2 | -9% | ? | -3
CC(C)c1nc(C#N)c(NN)o1 | 15 | -1.8 | 0 | -4.5 | -12% | 6.2 | 7
COc1cccc(OC)c1C(=O)Nc1nc(-c2ccccc2)cs1 | 3 | -0.8 | -1 | -4.3 | -5% | 0.0 | 9
C=CCN(CC=C)CCOc1ccc(OC(C)C)cc1 | nt | -0.5 | -79 | -3.5 | -7% | 7.8 | 1
CCc1ccc2[nH]c(=O)c(CN(Cc3ccc4c(c3)OCO4)C(=O)c3ccco3)cc2c1 | -8 | nt | 3 | 7.1 | -8% | -2.0 | nt
CN(Cc1ccc(F)cc1)C(=O)c1cccc(S(=O)(=O)N2CCN(c3ccc(F)cc3)CC2)c1 | -14 | -5.3 | 12 | 6.4 | -3% | -0.1 | 4
O=C(COC(=O)CNC(=O)c1ccccc1)NCCc1ccccc1 | 2 | -0.7 | 11 | -0.6 | -5% | -3.8 | 3
COc1ccc(CN=C2NC(=O)CC(C(=O)Nc3ccc([N+](=O)[O-])cc3C)S2)cc1 (configuration not stated) | nt | -0.7 | nt | nt | 6% | nt | -10
O=C(NNS(=O)(=O)c1ccc(F)cc1)C1CC(c2cccnc2)=NO1 (configuration not stated) | nt | -7.5 | 1 | -0.2 | ? | 1.5 | -11
O=C(CCCNS(=O)(=O)c1cccc2nsnc12)NCCc1ccccc1 | -14 | -1.5 | -26 | -1.9 | 27% | 0.6 | 0
Cc1cc(C(=O)OCC(=O)NCc2ccco2)c(C)n1-c1ccccc1 | -14 | -7.2 | -4 | -0.1 | 20% | ? | 6
N#CC1=C(N)Oc2c(ccc3cccnc23)C1c1ccccc1 (configuration not stated) | -3 | -0.4 | 4 | -8.0 | nt | 1.5 | -12
O=C(Nc1ccccc1C(=O)N/N=C/c1ccco1)c1ccccc1 | 4 | -0.3 | -16 | -1.0 | ? | 0.3 | -10
COc1ccc(C2CC(c3cccc(Cl)c3)=NN2c2ccc(S(N)(=O)=O)cc2)cc1 (configuration not stated) | nt | -1.9 | nt | nt | -4% | nt | 6
CC1(C)C(=O)NCCN1C(=O)CC1C(=O)NCCN1CC(c1ccccc1)c1ccccc1 (configuration not stated) | nt | 1.4 | -5 | -8.2 | 20% | -0.6 | -15
Cc1ccc(NC(=O)Nc2ccc(C(=O)N3CCOCC3)cc2)cc1 | 2 | 4.2 | -1 | -0.3 | 2% | -3.4 | -3
Cc1ccc(/C=N/NC(=O)C(c2ccncc2)N2CCOCC2)cc1 (configuration not stated) | -20 | 2.2 | ? | 2.6 | -9% | 0.5 | -5
O=C(CCN1C(=O)/C(=C\c2ccc(F)cc2)SC1=S)Nc1ccc(O)cc1 | 1 | -2.8 | 0 | 7.2 | nt | -0.2 | 2
C=CCNC(=O)CSc1nnc(-c2ccc(S(=O)(=O)N3CCCC3)cc2)n1C | -7 | 3.7 | nt | -7.9 | nt | 6.3 | 2
O=[N+]([O-])c1cc([N+](=O)[O-])c(Oc2cc(Cl)cc(Cl)c2)cc1NN1CCCCC1 | nt | 1.9 | nt | -4.5 | nt | nt | -2
COC(=O)C[C@H]1c2ccccc2S(=O)(=O)N1c1cccc(OC)c1 | 0 | 0.3 | 2 | 1.0 | nt | 0.0 | 9
O=C(COc1ccccc1Cl)N1CCc2ccccc21 | nt | -0.1 | 2 | nt | nt | -0.7 | -1
Cc1ccc(S(=O)(=O)Nc2ccc(O)c3ncccc23)cc1 | 88* | 6.9 | 99* | -1.0 | ? | -3.2 | 1
NC1=NC2(CCCC2)n2c(nc3ccccc32)N1 | 4 | 0.6 | -3 | 0.6 | -1% | 3.4 | 5
S=c1[nH]nc(-c2ccco2)n1/N=C/C=C/c1ccco1 | 60 | -16 | 20 | -9.3 | ? | -0.8 | 1
O=C(/C=C/c1ccccc1[N+](=O)[O-])NCCCn1ccnc1 | -1 | -3.6 | -7 | -2.6 | -3% | 2.3 | -5
